GALR2 ag – activates the human galanin receptor 2 | GALR2-expressing cells, agonist activation read-out | AID 803 | 140,000 compounds, 0.48% hits | O43603 | activation, %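 (tested at 5 µM)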;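 active = above mean plus 3 SD of all compounds, about 5% in these data, not always enough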;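 also: 0% = vehicle buffer wells and 100% = reference agonist at full effect; tested in CHO reporter cells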
Target sequence (O43603 whole entry, looked up): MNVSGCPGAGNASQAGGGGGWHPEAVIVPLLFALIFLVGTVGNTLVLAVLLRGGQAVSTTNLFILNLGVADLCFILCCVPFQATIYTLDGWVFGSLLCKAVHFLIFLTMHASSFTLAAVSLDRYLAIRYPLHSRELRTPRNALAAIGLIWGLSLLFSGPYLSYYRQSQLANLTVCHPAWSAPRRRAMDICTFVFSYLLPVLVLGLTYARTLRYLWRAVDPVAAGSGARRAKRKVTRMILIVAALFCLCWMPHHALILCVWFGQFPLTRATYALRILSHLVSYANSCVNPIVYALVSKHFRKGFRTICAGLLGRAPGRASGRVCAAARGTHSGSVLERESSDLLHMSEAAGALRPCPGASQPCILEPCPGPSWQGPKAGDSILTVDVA
RGS16-Gao HTS – regulators of human RGS16-Galphao interaction. O15492+P09471. bead-based flow cytometry RGS16-Galphao binding, fluorescence; actives lie on both sides. binding response (% of control), % at 10 µM. 220,000 compounds, 0.38% hits. AID 1441;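 active = below 25% or above 175%, edge rows of some plates excepted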;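 also: Galphao activated by GDP with aluminum fluoride before binding; 100% = wells without compound and 0% = beads without RGS; some results beyond the cut were filed as inactive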
Target sequence (O15492 whole entry, looked up): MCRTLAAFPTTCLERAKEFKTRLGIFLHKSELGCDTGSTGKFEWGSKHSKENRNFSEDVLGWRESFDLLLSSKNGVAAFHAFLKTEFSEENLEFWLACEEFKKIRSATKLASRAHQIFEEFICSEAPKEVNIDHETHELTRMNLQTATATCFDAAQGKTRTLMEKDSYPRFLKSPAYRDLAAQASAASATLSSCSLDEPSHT
Target sequence (P09471 whole entry, looked up): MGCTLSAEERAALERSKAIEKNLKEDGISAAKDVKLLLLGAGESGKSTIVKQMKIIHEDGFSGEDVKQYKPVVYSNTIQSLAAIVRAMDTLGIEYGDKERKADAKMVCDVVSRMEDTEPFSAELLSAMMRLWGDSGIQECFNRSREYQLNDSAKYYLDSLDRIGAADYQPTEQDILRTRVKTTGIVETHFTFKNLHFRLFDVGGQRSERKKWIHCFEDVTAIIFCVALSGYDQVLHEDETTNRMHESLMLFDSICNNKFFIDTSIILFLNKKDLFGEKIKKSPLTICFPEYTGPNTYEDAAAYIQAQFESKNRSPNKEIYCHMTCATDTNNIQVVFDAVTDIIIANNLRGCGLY
Insulin prom inh – TRM-6 insulin promoter activity inhibition | TRM-6 cells (human fetal islet line), insulin promoter-eGFP reporter, imaging; reporter expression induced with tamoxifen | inhibition, % at 2 µM | 130,000 compounds, 0.9% hits | AID 1273;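 active = inhibition above the mean plus 3 SD, with well images judged a real hit on visual review, cut at about 60% in these data, passing the limit was not always enough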
PKD1 inh – blocks activity of human protein kinase D1. 200,000 compounds, 0.056% hits. inhibition, %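 (about 10 µM by stock and volumes)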. AID 797. PKD1 kinase fluorescence polarization assay;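 active = inhibition of 50% or more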;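 also: controls were vehicle for no effect and a reference inhibitor for full effect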
HSV augment – increases HSV replication in cells. 220,000 compounds, 0.005% hits. HSV replication augmentation in cells, fold increase. AID 1956. maximum fold increase;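 active = peak rise of 1.5-fold or more in the series; tested in PC3 cells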;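 also: first round at 10 µM; read as green reporter fluorescence; hits show the peak of a series up to 25 µM; 1 = signal of infected wells without compound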
Insulin prom inh cell count – further read-out of Insulin prom inh, marked with its call; normalized cell count, %; measured here: cell count, toxicity; reference of the scale not given here;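 cells exposed to compound for 48 h; stained nuclei by imaging scaled within each plate; lower means fewer cells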
HSV augment primary fold – further read-out of HSV augment, marked with its call; fold increase; compound at 10 µM; measured here: primary screen fold increase 10 uM; tested in PC3 cells;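 GFP signal in the first replicate; 1 = infected wells without compound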
Numbers without * were called inactive; i = inactive; · = no result given.

entry	Molecule	GALR2 ag	RGS16-Gao HTS	Insulin prom inh	Insulin prom inh cell count	PKD1 inh	HSV augment	HSV augment primary fold
1	Cc1ccc(-c2sc(C(=O)NN)c(C)c2C#N)cc1	·	95.2	·	·	·	i	1
2	O=c1cc(-c2ccccc2)n(S(=O)(=O)c2ccc3ccccc3c2)o1	0.8	·	0.0	143.7	-3.2	·	·
3	Cc1ccccc1NC(=O)CN(c1ccc(F)cc1)S(C)(=O)=O	-1.0	95.0	-88.6	124.4	-2.7	i	0.993
4	Cc1[nH]c2ccccc2c1C(=O)CSC(=S)N1CCCCC1	0.8	96.7	-33.3	125.2	4.7	i	0.88
5	CCCCC/S(CC1CC1(Cl)Cl)=N\S(=O)(=O)c1ccc(C)cc1 (centres undefined)	·	100.5	·	·	1.5	i	0.79
6	CCC(=O)NC(Nc1ccccn1)(C(=O)OC)C(F)(F)F (centres undefined)	-3.4	107.2	-7.1	110.8	8.2	i	0.97
7	CN(C)S(=O)(=O)c1ccc(C(=O)OCc2nnc(-c3ccccc3)o2)cc1	·	98.7	·	·	·	i	1.13
8	Cc1cc(C(=O)Nc2nc3c(s2)CCCC3)no1	-2.4	103.4	63.6	64.9	9.6	i	1.01
9	CCOC(=O)NCc1ccc(Cl)c(Cl)c1	-3.5	109.1	8.3	103.5	-2.8	i	0.96
10	CN1C2C=C(N(CCc3c[nH]c4ccccc34)C(=O)c3ccc(Cl)cc3)CC1CC2 (centres undefined)	-1.3	106.6	-36.7	63.0	-7.1	i	0.98
11	O=[N+]([O-])c1ccc(OCc2cnc(Cl)s2)c([N+](=O)[O-])c1	·	98.9	·	·	-3.4	i	0.93
12	Cc1ccc(C(C)C)c(OCCNS(C)(=O)=O)c1	-0.4	102.3	·	·	-6.4	i	0.88
13	Cc1cccc(NC(=O)C2CCN(S(=O)(=O)c3c(C)[nH]c(=O)[nH]c3=O)CC2)c1	0.6	78.2	33.3	111.0	-12.8	i	0.97
14	CC(C)OC(=O)N(C)c1ccc(C(O)(C(F)(F)F)C(F)(F)F)cc1	-1.4	102.7	3.9	121.0	5.2	i	0.87
15	COc1cc(-c2[nH]ncc2CN2CCSCC2)cc(OC)c1OC	·	96.6	·	·	·	i	0.89

A different layout for some results above:
Values run as follows: GALR2 ag | RGS16-Gao HTS | Insulin prom inh | Insulin prom inh cell count | PKD1 inh | HSV augment | HSV augment primary fold
(4) Cc1[nH]c2ccccc2c1C(=O)CSC(=S)N1CCCCC1
  0.8 | 96.7 | -33.3 | 125.2 | 4.7 | i | 0.88
(15) COc1cc(-c2[nH]ncc2CN2CCSCC2)cc(OC)c1OC
  · | 96.6 | · | · | · | i | 0.89
(7) CN(C)S(=O)(=O)c1ccc(C(=O)OCc2nnc(-c3ccccc3)o2)cc1
  · | 98.7 | · | · | · | i | 1.13

Carrying on:
entry	Molecule	GALR2 ag	RGS16-Gao HTS	Insulin prom inh	Insulin prom inh cell count	PKD1 inh	HSV augment	HSV augment primary fold
16	CCOC(=O)Nc1ccc(S(=O)(=O)N(C)C(C)C)cc1	-1.5	107.6	13.0	98.6	-2.4	i	0.92
17	Cc1nc(-c2ccccc2)[nH]c(=O)c1Oc1ccc(Cl)cc1Cl	·	93.2	·	·	·	i	1.23
18	CCN(CC)C(=O)c1sc(NC(=O)c2cccs2)c(C#N)c1C	·	99.6	26.7	76.7	1.1	i	1.07
19	COc1ccc(-c2cnc(NCc3cc4c(cc3[N+](=O)[O-])OCO4)n2C)cc1	-0.9	103.2	29.7	161.6	-12.0	i	0.89
20	O=S(=O)(c1ccccc1)N1CCN(C(=S)NCCCN2CCOCC2)CC1	·	98.5	0.0	77.0	-1.8	i	1.13
21	C/C(CCN1CCc2nc(-c3ccccc3)c(-c3ccccc3)cc2C1)=N\OC[C@@H](C)[C@H](OCc1ccccc1)C(C)C	-0.1	117.0	-10.0	73.0	-6.8	i	0.81
22	Cn1cnnc1SCc1ccc(C#N)cc1	0.5	12.3	-23.1	92.4	-0.9	i	1.05
23	Cc1nn2c(N3CCN(CCO)CC3)c3c(nc2c1-c1ccccc1)CCCC3	·	100.1	·	·	·	i	0.76
24	COc1ccc(/C=N/Nc2ccccn2)cc1OC	·	101.0	·	·	·	i	0.9
25	S=c1[nH]nc(-c2cc(-c3ccccc3)n[nH]2)n1/N=C/c1cccs1	·	105.9	·	·	·	i	1.17
26	O=C(Nc1ccc(Cl)c(Cl)c1)Nc1ccc(N2CCCC2)c(S(=O)(=O)Nc2ccccc2Cl)c1	-0.5	101.3	32.1	144.8	-7.6	i	0.75
27	C#CCOCCOCCOCCNc1nc(N2CCN(C(=O)[C@H](CCC(=O)O)n3cc(C(N)Cc4ccc(O)cc4)nn3)CC2)nc(N2CCN(C(=O)[C@H](Cc3ccc(O)cc3)n3cc(C(N)CC(C)C)nn3)CC2)n1 (some centres undefined)	·	84.2	·	·	·	i	0.86
28	COc1ccc(-c2nc(N)n(C(=O)c3ccccc3)n2)cc1	·	97.5	-5.9	153.1	-5.3	i	1.25
29	Cn1c(=O)c2c(nc(Br)n2C)n(C)c1=O	-1.3	94.2	·	·	11.1	i	1.14
30	Cc1ccc(Nc2nc(N)c([N+](=O)[O-])c(N3CCCC(C)C3)n2)cc1C (centres undefined)	-0.1	100.9	-14.7	116.4	22.8	i	0.82
31	CCn1c(SCC(=O)NCCOC)nc2sc3c(c2c1=O)CCCC3	-1.7	100.6	0.0	77.7	-1.6	i	0.96
32	COc1cc(OC)cc(C(=O)Nc2nc3ccc(S(C)(=O)=O)cc3s2)c1	·	98.5	8.3	40.9	12.3	i	0.89
33	CC(C)CCNC(=O)C1CC(c2ccccc2C(F)(F)F)=NO1 (centres undefined)	·	102.4	·	·	·	i	0.82
34	CC(Oc1ccc(Cl)cc1Cl)c1nc(-c2ccccn2)no1 (centres undefined)	-1.0	101.6	32.1	26.0	-4.4	i	0.89
35	Cc1nc(N)c(C#N)c(-c2cccnc2)c1C	-0.1	86.4	-7.5	123.4	-7.3	i	0.99
36	COc1ccc(N2CCN(CCCNC(=O)c3cc4sccc4n3C)CC2)cc1	-1.9	110.3	28.6	95.9	-4.0	i	0.89
37	Cc1ccccc1OCC(O)CN1CCN(c2ccc(Cl)cc2)CC1 (centres undefined)	·	99.4	·	·	·	i	0.87
38	COCCCNC(=O)C1CC(=O)OC1c1ccc(OC)c(OC)c1 (centres undefined)	-1.5	57.9	23.9	47.8	6.6	i	1.21
39	Cn1nc(-c2ccc(C(=O)Nc3cccnc3)cc2)c2ccccc2c1=O	-1.1	106.1	-62.5	144.8	-7.5	i	0.9
40	CCOC(=O)C1=C(Nc2ccccc2)CC(C)(O)C(C(=O)OCC)C1c1ccc(Cl)cc1 (centres undefined)	-1.1	90.3	-1.6	96.7	4.6	i	1.13
41	CN(C)c1ccc(-c2cccc(C3CC=CC4C3C(=O)N(Cc3ccccc3)C4c3ccc4ccccc4c3)c2)cc1 (centres undefined)	·	93.1	·	·	·	i	0.71
42	CCOC(=O)Cc1csc(N/N=C/c2ccc(Cl)cc2)n1	·	92.7	·	·	·	i	1.14
43	Cc1cccc(NC(=O)COc2ccc(/C=N\n3cnnc3)cc2)c1	-0.3	93.2	-8.3	110.7	0.5	·	·
44	CCOC(=O)c1c(C)c(C(=O)NCC2CCCO2)c(C)n1CC (centres undefined)	-1.4	103.7	·	·	-11.1	i	1.03
45	O=C(Nc1cccc2c1CCCC2)C1CCN(C(=O)NC2CCCCC2)CC1	-0.8	102.8	-14.3	118.4	-6.0	i	1.18

Record cards, as listed above. Order of values: GALR2 ag | RGS16-Gao HTS | Insulin prom inh | Insulin prom inh cell count | PKD1 inh | HSV augment | HSV augment primary fold
`CN(C)c1ccc(-c2cccc(C3CC=CC4C3C(=O)N(Cc3ccccc3)C4c3ccc4ccccc4c3)c2)cc1` (centres undefined) is listed as · | 93.1 | · | · | · | i | 0.71
`COCCCNC(=O)C1CC(=O)OC1c1ccc(OC)c(OC)c1` (centres undefined) is listed as -1.5 | 57.9 | 23.9 | 47.8 | 6.6 | i | 1.21

Continuation:
entry	Molecule	GALR2 ag	RGS16-Gao HTS	Insulin prom inh	Insulin prom inh cell count	PKD1 inh	HSV augment	HSV augment primary fold
46	CN1CCN(S(=O)(=O)c2ccc(Br)s2)CC1	-2.5	140.0	-50.0	64.2	-3.7	i	1.13
47	CC(Nc1nc(-c2ccc3c(c2)NC(=O)CO3)cs1)c1ccccc1 (centres undefined)	·	99.2	·	·	-10.2	i	1.12
48	N#C/C(=N\Nc1ccc(F)cc1)C(=N)N1CCCCC1	-1.2	105.4	2.9	146.7	8.9	i	0.7
49	C=CCn1c(SCC(=O)Nc2cccnc2Cl)nnc1-c1ccc(C(C)(C)C)cc1	-0.2	101.5	-64.7	120.7	0.7	i	0.82
50	O=C1CC(c2ccco2)CC(O)=C1C=NCCN1CCN(C2CC(=O)N(c3ccccc3)C2=O)CC1 (centres undefined)	-0.1	97.1	7.9	87.5	-12.2	i	1
51	CCc1ccccc1Cn1c(=O)oc2cccnc21	·	101.4	·	·	·	i	1.11
52	O=C(NCc1ccco1)C1(c2ccc(Cl)cc2)CCCC1	-1.5	102.8	-26.7	97.3	-6.0	i	0.88
53	Cn1c(=O)c2c(nc(SCC(=O)O)n2Cc2cc3c(cc2Cl)OCO3)n(C)c1=O	-1.9	100.4	-1.4	56.7	-4.6	i	0.9
54	c1csc(-c2nc3ccccn3c2NC2CCCCC2)c1	·	103.2	·	·	0.4	i	1.13
55	COc1ccc(NC(=O)CSc2nnc(CNC(=O)c3ccco3)o2)c(OC)c1	1.9	96.4	-12.9	93.6	0.9	i	1.03
56	COc1ccc(C(c2nnnn2C2CCCCC2)N2CCN(c3ccccc3)CC2)cc1 (centres undefined)	-0.6	·	·	·	-8.8	·	·
57	Cc1cc(NC(=O)CSc2nc3c(c(=O)n2CCc2ccccc2)SC(C)C3)no1 (centres undefined)	-0.6	98.7	·	·	-16.0	i	1.01
58	Cc1cccc(C(=O)N2CCN(c3ncnc4c3cnn4-c3ccccc3)CC2)c1	-1.8	102.2	53.3	141.1	-3.2	i	0.83
59	O=C(CSc1nc2ccccc2c(=O)[nH]1)Nc1ccc(C(=O)O)cc1	·	99.7	·	·	-2.5	i	1.11
60	Cc1ccc(NC(=O)C(=O)NCCN2CCN(C(=O)C(c3ccccc3)c3ccccc3)CC2)cc1	-0.6	104.9	-38.7	151.6	11.4	i	0.993
61	CCC(Oc1ccccc1)C(=O)Nc1nc2ccccc2[nH]1 (centres undefined)	-0.1	98.8	-10.3	67.8	6.7	i	0.88
62	Cc1ccc(NC(=O)C2CCCN2S(=O)(=O)c2ccc(F)cc2)c(C)c1 (centres undefined)	-1.5	101.5	-245.8	76.9	-2.4	i	0.943
63	NNC(=O)c1[nH]c2ccc(Br)cc2c1-c1ccccc1	·	68.9	·	·	·	i	0.82
64	CCCCN(C(=O)NC(=O)Nc1ccccc1OCC)S(C)(=O)=O	-1.6	91.3	18.2	121.2	-7.4	i	0.95
65	COC(=O)c1ccc(NC(=O)c2c(C(=O)Nc3ccccc3)sc3nc(C)cc(=O)n23)cc1	·	101.0	48.1	163.8	-1.4	i	0.96
66	CC1=C(C)CC(C(=O)Nc2ccc(C(N)=O)cc2)C(C(=O)O)C1 (centres undefined)	-2.0	99.4	35.1	189.7	-2.0	i	0.95
67	CC1CCCN(S(=O)(=O)c2ccccc2[N+](=O)[O-])C1 (centres undefined)	-1.9	123.4	20.7	102.9	-0.4	i	1.02
68	Cc1cccc(N2C(=O)c3cccc(Oc4ccc(Cl)cc4)c3C2=O)c1	1.3	97.3	0.0	131.4	1.1	i	0.95
69	COc1cccc(OC)c1C(=O)NNC(=O)c1cccc(COc2ccc3c(c2)CCC3)c1	0.9	112.4	4.4	145.6	-5.8	·	·
70	CC(=O)c1ccc(OC(=O)c2ccc(Br)o2)cc1	-0.6	104.0	·	·	-5.8	i	0.92
